Assay outcomes: PubChem, National Center for Advancing Translational Sciences (NCATS)
HPGD block: HPGD (human) dehydrogenase inhibition. purified HPGD, NADH fluorescence kinetic, PGE2 substrate. Potency, µM, inactives show top-dose activity change, negative = inhibition, actives largely listed as inhibitors. 4.3% of 150,000 active. AID 894; active = well fitted inhibition curve with a large enough effect (not every such curve was filed as active); inconclusive = small, poorly fitted or top-dose-only effect, or another doubt; inactive = no such curve, though single readings can be large or run the other way;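 note: top concentration of the series not given in the record; plate controls included wells without enzyme; inactives centre near -10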
Target sequence (P15428 whole entry, looked up): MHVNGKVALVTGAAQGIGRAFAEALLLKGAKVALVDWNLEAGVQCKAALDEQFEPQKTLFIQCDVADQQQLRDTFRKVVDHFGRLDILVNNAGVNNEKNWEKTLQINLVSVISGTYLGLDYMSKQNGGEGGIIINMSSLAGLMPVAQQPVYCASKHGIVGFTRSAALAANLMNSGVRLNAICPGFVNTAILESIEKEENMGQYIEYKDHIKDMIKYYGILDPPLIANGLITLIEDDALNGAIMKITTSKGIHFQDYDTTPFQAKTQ
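20 nM HPGD preincubated 15 min at room temperature with compound in 50 mM Tris-HCl pH 8, 0.01% Tween 20. Started with 1 mM NAD+ and 30 uM prostaglandin E2; NADH fluorescence (360/450 nm) read 5 times over 30-s intervals, last minus first.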
* = called active by the depositor; ? = inconclusive; & = joins results of further samples; [ ] = dose if it differs, or a comment. % is set by controls: 0 for no effect and ±100 for the full control effect; potency is the fitted concentration of half-maximal effect.

molecule,HPGD block
CCOC(=O)C1=C(c2ccccc2)NC(SC)=C(C#N)C1c1ccco1 (stereo unspecified),-8%
CC(C)N1CC(O)=C(c2ccccc2)C1=N,?
O=C(Cn1nc(-c2ccc(Cl)cc2)ccc1=O)NCCCN1CCN(Cc2ccccc2)CC1,-6%
CC(Oc1cc(Cl)ccc1Cl)C(=O)N/N=C\c1ccnn1C (stereo unspecified),3%
O=C(NCCOc1ccccc1)C(c1ccccc1)c1ccccc1,-5%
O=C1N=C(N2CCN(c3ccccc3)CC2)S/C1=C/c1cccs1,16µM*
CCOc1ccc(CN=C(N)N=C(N)N)cc1Cl,-8%
O=C(CSc1ncccn1)NN=C1CCCCCC1,-7%
CNC(=O)C12CC3CC(CC(Cl)(C3)C1)C2,-6%
COc1cccc(/C=N/NC(=O)C(=O)NCc2ccco2)c1O,-8%
COc1cc(OC)c(NC(=O)CCNS(=O)(=O)c2cc(Br)cnc2N)cc1Cl,-6%
Cc1ccc(C)c(NC(=O)CNS(=O)(=O)c2ccccc2)c1,-4%

(further entries)
molecule,HPGD block
COc1cc(O)c2c(=O)cc(C)oc2c1CC=C(C)C,-17%&-12%
Cc1ccc(NC(=O)CC2S/C(=N/c3nccs3)N(C)C2=O)cc1C (stereo unspecified),-5%
O=C(O)c1nc(N2CCOCC2)nc(N2CCOCC2)n1,-2%
Cc1ccccc1-c1c(C)oc2cc(O)ccc2c1=O,?
CCOC(=O)C1CCN(C(c2cc(OC)c(OC)c(OC)c2)c2sc3nc(C)nn3c2O)CC1 (stereo unspecified),3%
CC1(C)NC(=O)N(CCOCCOc2c(Cl)cc(Cl)cc2Cl)C1=O,-13%
COc1ccccc1/C=C1\SC(=S)N(Nc2nc(C)cc(C)n2)C1=O,-10%
c1ccc2n[nH]nc2c1,-5%
O=C1CCC(=O)N1CNc1ccccn1,-8%
Cc1nc2ccccc2n1S(=O)(=O)c1ccc(Br)cc1,-22%
COc1ccc2c(c1)C(c1ccc(C)cc1)CC(=O)O2 (stereo unspecified),-4%
O=C(NCc1ccccc1)c1c[nH]c2ccc(S(=O)(=O)Nc3ccc4c(c3)OCCO4)cc2c1=O,-20%

Additional results follow:
molecule,HPGD block
COc1ccc(-c2cc(C(=O)N3CCN(Cc4ccccc4)CC3)no2)cc1OC,-29%
CCOc1ccccc1Nc1nnc(SCC(=O)Nc2cccc(S(=O)(=O)NC3=NCCCCC3)c2)s1,-32%
CC(=O)OCCn1c(=O)c2cc3c(=O)n(CCOC(C)=O)c(=O)c3cc2c1=O,0%
O=C(Nc1nncs1)c1ccccc1NS(=O)(=O)c1cccs1,?
CC(C)c1nc(N2CCN(C(=O)c3ccccc3)CC2)c(C#N)c2c1COC(C)(C)C2,?
O=C(Nc1ccccc1)c1ccc(Br)c(S(=O)(=O)Nc2cccnc2)c1,-7%
CCCCCCCC(=O)O,1%&-7%
CC1(C)Cc2cccc(OCC(=O)Nc3nccs3)c2O1,-12%
Cn1c(SCC(=O)Nc2cc(=O)n(C)c(=O)n2C)nnc1-c1cccs1,-17%
C/C(=N\NC(=O)COc1ccc(C(C)(C)C)cc1)c1cc2ccccc2o1,?
O=C1c2ccccc2C(=O)N1CC(O)COCc1ccccc1 (stereo unspecified),-6%
O=C1/C(=C\c2ccco2)CCC/C1=C\c1ccco1,-17%

The list continues:
molecule,HPGD block
COc1ccc(C)cc1N,-7%
O=C(c1cccs1)N1CCN(Cc2nc3ccccc3c(=O)[nH]2)CC1,-1%
C=CCN1C(=O)/C(=C\c2ccco2)C(C(=O)OC)=C1C,32µM*
CCOc1ccc(NC(=O)Nc2cc(OCC(F)(F)F)cc(OCC(F)(F)F)c2)cc1,-15%
CCN(CC)CCN1C(=O)c2oc3ccccc3c(=O)c2C1c1ccc(F)cc1 (stereo unspecified),-9%
O=c1cnc2cnc(N3CCNCC3)nc2n1Cc1cccs1,?
O=C(NCc1ccco1)c1cccs1,25µM*
O=C(NCCc1ccc(Cl)cc1)c1cccnc1,-7%
CN=C(NC#N)NCCSCc1csc(N=C(N)N)n1,-18%
Cc1nn(CC(=O)Nc2ccc3c(c2)nc(CN2CCCC2)n3C)c(=O)c2ccccc12,-3%
O=C(CSC1CC(=O)N(CC(c2ccccc2)c2ccccc2)C1=O)Nc1ccc(Cl)cc1 (stereo unspecified),-15%
CCCc1cc(C(=O)N(C2CCCCC2)C2CCCCC2)no1,6%

Additional compounds:
molecule,HPGD block
CCOC(=O)c1[nH]c2ccc(C)cc2c1N=C(C)N(C)C,-12%
O=c1cnc2cnc(Oc3cccc(Cl)c3)nc2n1C1CC1,-7%
N#Cc1c(N)n(CCNC(=O)c2ccccc2)c2nc3ccccc3nc12,?
FC(F)(F)C(Oc1nc(NC2CCCCC2)nc(N2CCOCC2)n1)C(F)(F)F,?
O=C1C2C3C=CC(C3)C2C(=O)N1Cc1ccccc1 (stereo unspecified),7%
CC(C)(C)C(=O)Nc1nnc(SCC(=O)Nc2ccc3c(c2)OCO3)s1,-14%
CCOC(=O)c1c(C)[nH]c(C(=O)CN2CCOCC2)c1C,0%
O=C(CSCc1ccc(Br)cc1)Nc1ccc(S(=O)(=O)N2CCCCCC2)cc1,-21%
COc1ccc(CC(=O)Nc2cccc(-c3nnc(-c4ccc(C)cc4)o3)c2)cc1OC,-4%
Cc1cc(NC(=O)c2cc(CC(C)C)on2)n(-c2ccccc2)n1,-16%
O=C(CN(c1ccccc1)S(=O)(=O)c1ccc(F)cc1)N1CCCCCC1,0%
Cc1nn(Cc2ccccc2)c(C)c1/C=N/NC(=O)CNc1cccc(C(F)(F)F)c1,-10%

(continued)
molecule,HPGD block
FC(F)(F)c1ccc(C2[C@H]3CN(Cc4ccc(-c5ccccc5)cc4)[C@H](c4ccccc4)C34CC2(c2ccccc2)C4)cc1 (stereo partly specified),-6%
C=CCSc1nc(N)c(C#N)c(-c2ccc(C)cc2)c1C#N,-21%
COc1ccc(NC(=O)CSc2nc(N)c(C(=O)Nc3ccc(N(C)C)cc3)s2)cc1,-10%
COc1cc(OC)cc(C(=O)NCC(=O)OCC(=O)C(C)(C)C)c1,-16%
COc1ccc(S(=O)(=O)N2CCOCC2)cc1C(=O)Nc1nc2ccccc2s1,-14%
Cc1ccc(C(=O)Nc2ccccc2C(=O)NC(CC(=O)O)C(=O)O)cc1 (stereo unspecified),-13%
COc1ccc(NC(=O)N2CC3(CCNCC3)C2)cc1,-5%
Cc1n[nH]c(C)c1S(=O)(=O)N(CC(=O)Nc1ccc2c(c1)OCCO2)c1ccc(C(C)C)cc1,-22%
Cc1cc(C)c(S(=O)(=O)N2CCN=C2c2ccccc2)cc1C,-5%
O=C(Nc1cccc2c1CCCC2)c1ccco1,-11%
COc1cccc(C(c2c(C)[nH]n(-c3ccccc3)c2=O)c2c(C)[nH]n(-c3ccccc3)c2=O)c1O,-9%
Cn1c(Oc2ccccc2NCc2cc(Br)ccc2O)cc(=O)n(C)c1=O,-7%

Further entries follow:
molecule,HPGD block
CSc1nnc(Cc2sc(-c3ccccc3)nc2-c2ccccc2)o1,?
O=C(O)c1ccccc1-c1c2ccc(=O)cc-2oc2cc(O)ccc12,?
O=[N+]([O-])c1ccc(N2CCCC2)cc1NC1CC1,-22%
CCN(CC)S(=O)(=O)c1cc(C(=O)OCC(=O)NC2CCCc3ccccc32)ccc1C (stereo unspecified),-13%
CCc1nc2sc(C)c(C)c2c(=O)n1CCO,-8%
COc1cc(COc2cc(N)c(Cl)cc2C(=O)CCC2CCN(CCNS(C)(=O)=O)CC2)cc(OC)c1,-2%
COc1ccc(CC(C(=O)Nc2cc(C)ccc2C)/C(N)=N/O)cc1 (stereo unspecified),6%
CCCN1CCN(CCCNC(=O)C2CCN(c3nnc(-n4cccc4)s3)CC2)CC1,-8%
Cc1cc(C)c2c(n1)sc1c(=O)[nH]c(SCc3ccccc3)nc12,?
O=S1(=O)C=C(SCCN2CCCC2)c2ccccc21,-14%
Cc1c(N)cccc1Cl,-5%
C=CCNc1nc(-c2ccc(OC)cc2OC)cs1,?

(cont.)
molecule,HPGD block
CC1C/C(=N/NC(=O)c2ccc(CSc3nc4ccccc4[nH]3)cc2)CC(C)(C)C1 (stereo unspecified),-29%
CN(C)c1ccc(CNCCC2CCOC(C)(C)C2)cc1 (stereo unspecified),-16%
CC(C)CC(COCc1ccc(F)cc1)N1CCN(C(=O)c2cccc(C(F)(F)F)c2)CCC1=O (stereo unspecified),-13%
C=CCNC(=S)N/N=C(\C)c1ccccn1,-22%
CCOC(=O)c1cn(-c2ccc(F)c(F)c2F)c2c(F)c(F)c(F)cc2c1=O,-3%
O=C(COC(=O)c1cccc(NS(=O)(=O)c2ccc(F)c(F)c2)c1)NC(=O)NC1CCCC1,-3%
Cc1ccc(S(=O)(=O)Nc2ccc3nc(-c4cccn4C)[nH]c3c2)cc1,120%[activator]
Cc1ccc(C(=O)c2ccccc2C(=O)OCC(=O)Nc2cccc([N+](=O)[O-])c2)cc1,-4%
C=CCN1C(=O)N(/C=C/C)c2cccc3cccc1c23,-11%
CCCCNC(C(=O)Nc1ccc([N+](=O)[O-])cc1Br)c1ccccc1 (stereo unspecified),-9%
COc1ccc(CCN2C(=NC(=O)CCC(=O)O)SC3CS(=O)(=O)CC32)cc1 (stereo unspecified),-22%
Cc1ccccc1Sc1c(C#N)c(-c2ccccc2)nn1C,-21%

Further entries follow:
molecule,HPGD block
CCOc1ccc2nc(N3C(=O)/C(=C/c4ccc(Cl)cc4)NC3=S)sc2c1,-22%
Cc1sc2nc(SCC(=O)N(C)Cc3ccccc3)n(-c3ccccc3)c(=O)c2c1C,-7%
COc1ccc2c(c1)c(=O)oc1cc(OCC(=O)NC3CCCCC3)ccc12,?
O=C(O)c1ccc(OCCn2ccnc2)cc1,-2%
Cc1cccc(NC(=O)c2ccccn2)c1C,-8%
CCCC(=O)NNc1cc(=O)c2c(=O)n(C)c(=O)n(C)c2[nH]1,2%
CCCn1c(SCC(=O)Nc2ccccc2N2CCCCC2)nc2c1c(=O)n(C)c(=O)n2C,-22%
CCCOc1ccc(C(=O)NNC(=S)NC(=O)c2cc(-c3ccc(Cl)cc3)nc3ccccc23)cc1,-3%
Cc1ccc2nc(NC(=O)C3CCCN(S(=O)(=O)c4cnc[nH]4)C3)sc2c1 (stereo unspecified),-12%
Cc1ccccc1NC(=O)Cn1nc(-c2ccccc2)nc1-c1ccccc1,-8%
Nc1c(S(=O)(=O)c2cccs2)c2nc3ccccc3nc2n1Cc1ccccc1,?
C/C(=C/C=N/Nc1nc(N2CCCCC2)nc(N2CCCCC2)n1)c1ccccc1,-9%

Retrieved one by one from above:
molecule,HPGD block
Cc1sc2nc(SCC(=O)N(C)Cc3ccccc3)n(-c3ccccc3)c(=O)c2c1C,-7%
Cc1ccc2nc(NC(=O)C3CCCN(S(=O)(=O)c4cnc[nH]4)C3)sc2c1 (stereo unspecified),-12%

The results go on.
molecule,HPGD block
c1ccc(-c2csc(N3CCCCCC3)n2)cc1,-8%
O=C(O)CNC(=O)c1ccc(OC(F)F)cc1,-4%
Cn1c(-c2ccccc2)cnc1SCC(=O)NCc1ccco1,-3%
C[C@H](Oc1ccc(Oc2cnc3ccc(Cl)cc3n2)cc1)C(=O)O,-10%
CC(=O)c1ccc(NC(=O)/C(=C\c2ccccc2)NC(=O)/C=C/c2ccccc2)cc1,-30%
Cc1ccc(CC(=O)NC(C)CCc2ccccc2)cc1 (stereo unspecified),-27%
CCN(CC)c1nc(Nc2ccccc2)nc(Oc2ccc(C(=O)OC)cc2)n1,-20%
COc1cccc(-c2nnc(SCC(=O)N3CCCc4ccccc43)o2)c1,28µM*
COc1ccc(NC(=O)C(c2ccccc2)N(C)C(=O)CNC(C)=O)cc1 (stereo unspecified),-10%
CCN(CC)S(=O)(=O)c1cc(C(=O)OCC(=O)Nc2c(F)cccc2F)ccc1F,-5%
O=C1c2ccccc2C(=O)c2c1cccc2N1CCCC1,-8%
CCC(/C=C/C(C)C1CCC2C3CCC4=CC(=O)CC[C@@]4(C)C3CC[C@@]12C)C(C)C (stereo partly specified),-11%

Carrying on.
molecule,HPGD block
Cc1ccc(N=C2NC(=O)/C(=C/C=C/c3ccco3)S2)cc1,-23%
O=C(NCCC1=CCCCC1)C1CCN(Cc2cnn(-c3ccccc3)c2-n2cccc2)CC1,-6%
CN(C)c1ccc(NC(=O)CSc2nc3ccccc3c(=O)n2C2CCCCC2)cc1,-18%
CCOCC(O)CS(=O)Cc1ccccc1 (stereo unspecified),-7%
O=c1cnc2cnc(N3CCOCC3)nc2n1C[C@H]1CCCO1,?
CS(=O)(=O)N(CCc1ccccc1)CC(=O)N1CCN(c2ccccc2F)CC1,-12%
COc1cc(NC(=S)NC(=O)c2ccc(F)cc2)ccc1NC(=O)c1ccco1,-11%
COc1cc2c(cc1NC(=O)c1cncc(Br)c1)oc1ccccc12,?
COc1ccc(C(=O)CC(=O)C(=O)NCCc2cccc(C)c2)cc1,-24%
CCOC(=O)C1=C(C)N(c2ccccc2)C(=O)/C1=C\c1cccs1,-2%

Quoted from the listing:
In HPGD block, `CCOCC(O)CS(=O)Cc1ccccc1` (stereo unspecified) is listed with -7%
In HPGD block, `CCOC(=O)C1=C(C)N(c2ccccc2)C(=O)/C1=C\c1cccs1` is listed with -2%
In HPGD block, `Cc1ccc(N=C2NC(=O)/C(=C/C=C/c3ccco3)S2)cc1` is listed with -23%
In HPGD block, `CN(C)c1ccc(NC(=O)CSc2nc3ccccc3c(=O)n2C2CCCCC2)cc1` is listed with -18%

The list is partial; the hit share may differ from the screen's.
